Screening data: PubChem BioAssay, Fisher Drug Discovery Resource Center
NPYLR7 agonist = agonists of mosquito NPYLR7 receptor, primary screen, cell-based, Aedes aegypti, calcium fluorescence, mosquito biting behavior; Aedes aegypti neuropeptide Y-like receptor 7 (NPYLR7); HEK293T NPYLR7/Galpha15, GCaMP6s calcium fluorescence; AID 1259423, 2018; activation, % at 10 µM; actives 0.15% (n = 270,000); in the data active means activation above about 40%;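 further: 0% = vehicle and 100% = reference agonist at the receptor; some compounds past the cut are filed as inactive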
NPYLR7 agonist max-min = recorded beside NPYLR7 agonist, whose call it bears; activation, %; measured here: Max-Min RFU normalised activation; some inactives read as strong as hits;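 span of the calcium signal over five minutes; 0% = vehicle and 100% = native peptide agonist; compound fluorescence can raise it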
* hit, by the source's call; & = joins results of further samples.

SMILES | NPYLR7 agonist | NPYLR7 agonist max-min
COC(=O)C1=C(O)/C(=C\c2cc(OC)cc(OC)c2)SC1=Nc1ccccc1OC | 12 | 12
Cc1cc(=O)n2nc(-c3ccccc3)cc2n1CC(O)CN1C(=O)c2ccccc2C1=O (stereo not drawn) | 0 | 24
CCOc1ccc(NC(=O)Nc2ccc(N3CCC(C)CC3)c(C(=O)NCCCOC)c2)cc1 | -1 | 5
O=[N+]([O-])c1cc(C(F)(F)F)cc([N+](=O)[O-])c1N=C1CCN(c2ccccc2)N1 | 9 | 5
O=C1C(=O)N(CCN2CCOCC2)C(c2ccccc2F)C1=C(O)c1ccccc1 (stereo not drawn) | 4 | 14
CCn1nc(C(=O)Nc2ccc(N3CCCC3)nc2)c2ccccc2c1=O | 16 | 7
O=C(NCc1ccccn1)c1cccc(OC2CCN(C(=O)c3cscn3)CC2)c1 | 23&6 | 18&1
O=C(Nc1ccncc1)c1cccnc1SCc1cccc([N+](=O)[O-])c1 | 0 | -1
O=C(c1nc(N2CCCC2)ncc1Cl)N1CCCC2CCCCC21 (stereo not drawn) | -1 | 0
C=CCn1c(=O)c2c(nc3n2CCN3c2ccccc2OC)n(C)c1=O | 3 | 0
CC(C)Oc1ccc(C(=O)NC2CC(=O)N(CCOc3ccccc3)C2)cn1 (stereo not drawn) | -9 | -8
NC(=NOC(=O)Cc1ccc(-c2ccccc2)cc1)c1ccccc1 | -7 | -13
c1cncc(-c2nc(CCNCc3nc(-c4ccco4)no3)cs2)c1 | -5 | -8
S=c1nc[nH]c2cc(-c3ccc(Cl)cc3)sc12 | 5 | 5
S=C1OC(c2ccccc2)=C/C1=C/N1CCOCC1 | -3 | -4
O=C1CN(C(=O)CCNS(=O)(=O)c2ccc(C3CCCCC3)cc2)CCN1 | 6 | 1
C=C(Br)Cn1c(-c2ccccc2)nc2ccccc21 | 0 | 1
O=C(NC(C1CC1)C1CC1)C1CCN(S(=O)(=O)c2ccccc2C(F)(F)F)CC1 | 5 | 3
O=C1/C(=C/c2csnn2)CCOc2cc(Br)ccc21 | 13 | 8
COc1cc2c(cc1OC)CN(C1CCCN(Cc3ccc4c(c3)OCCO4)C1)CC2 (stereo not drawn) | 2 | 0
O=C(NCCSCCCO)c1ccc(C2CCCCC2)cc1 | -8 | -9
CC(C)N1C(=O)C2(SCCN2C(=O)C2CCC2)c2ccccc21 (stereo not drawn) | 13 | 12
CN1C(=O)/C(=C2\SC(c3ccccc3)=NC2=O)c2ccccc21 | -6 | -14
CN1CCN2C[C@@H](NC(=O)C3Nc4ccccc4C4C=CCC34)C[C@H]2C1 (stereo partly drawn) | 31 | 19
O=C(CCC1CCCN(Cc2cccc3c2oc2ccccc23)C1)N1CCOCC1 (stereo not drawn) | 7 | 4
O=C(O)CCN1C(=O)/C(=C/c2ccccc2[N+](=O)[O-])SC1=S | -2 | -6
Cc1noc(-c2ccc(OC(F)(F)F)cc2)c1C(=O)NCCc1ccc(F)cc1 | 4 | 0
N#CCn1c(CN2CCCCC2C(N)=O)nc2scc(-c3ccccc3)c2c1=O (stereo not drawn) | 11 | 5
O=C(O)CC1(CC2=NS(=O)(=O)c3ccccc3N2)CCCC1 | 5 | 3
CC(C)C1CN(C(=O)CCN2CCCC2=O)CCCN1Cc1ccc(F)cc1 (stereo not drawn) | 1 | -1
COc1ccccc1-c1cc2c(n(Cc3ccccc3)c1=O)CCN(C(=O)CCc1cnccn1)C2 | 19 | 8
COc1ccc(NC(=O)C2CCN(C(=O)[C@@H]3CCCN3C(=O)Nc3c(Br)cc(C(C)C)cc3Br)CC2)cc1 | 3 | 2
COc1cccc(-c2cc(C(=O)N3CCN(C/C=C/c4ccccc4)CC3)nc3cc(C(C)(C)C)nn23)c1 | 9 | 6
Cc1nn(CC(=O)N2CC[C@H](O)[C@@H](O)C2)c(C)c1Cl | 2 | -1
O=C(c1cc(Cl)cc(Cl)c1)N1CCC(CCc2ccc3c(c2)OCO3)CC1 | 3 | 8
CC(=O)N(CC(O)CO)c1c(I)c(C(=O)NCCO)c(I)c(C(=O)NCC(O)CO)c1I (stereo not drawn) | -2 | -4
Cc1noc(CNC(=O)C(=O)NC2CCCCC2)n1 | 11 | 6
CCN(CC)C(=O)CN1CCN(S(=O)(=O)c2ccc3[nH]c(=O)oc3c2)CC1 | 4 | -4
COC(=O)c1ccc(-c2nc(CN(C)Cc3cccc(OC)c3)c(C)o2)cc1 | 1 | -4
Cc1ccsc1CNC(=O)Nc1cccnc1N1CCCC1 | 4 | -1

Ordered by formula weight (rising): some entries from above.
SMILES | NPYLR7 agonist | NPYLR7 agonist max-min
Cc1noc(CNC(=O)C(=O)NC2CCCCC2)n1 | 11 | 6
S=C1OC(c2ccccc2)=C/C1=C/N1CCOCC1 | -3 | -4
S=c1nc[nH]c2cc(-c3ccc(Cl)cc3)sc12 | 5 | 5
Cc1nn(CC(=O)N2CC[C@H](O)[C@@H](O)C2)c(C)c1Cl | 2 | -1
C=C(Br)Cn1c(-c2ccccc2)nc2ccccc21 | 0 | 1
Cc1ccsc1CNC(=O)Nc1cccnc1N1CCCC1 | 4 | -1
CN1C(=O)/C(=C2\SC(c3ccccc3)=NC2=O)c2ccccc21 | -6 | -14
O=C(NCCSCCCO)c1ccc(C2CCCCC2)cc1 | -8 | -9
O=C(O)CC1(CC2=NS(=O)(=O)c3ccccc3N2)CCCC1 | 5 | 3
CC(C)N1C(=O)C2(SCCN2C(=O)C2CCC2)c2ccccc21 (stereo not drawn) | 13 | 12
O=C1/C(=C/c2csnn2)CCOc2cc(Br)ccc21 | 13 | 8
O=C(O)CCN1C(=O)/C(=C/c2ccccc2[N+](=O)[O-])SC1=S | -2 | -6
CN1CCN2C[C@@H](NC(=O)C3Nc4ccccc4C4C=CCC34)C[C@H]2C1 (stereo partly drawn) | 31 | 19
COC(=O)c1ccc(-c2nc(CN(C)Cc3cccc(OC)c3)c(C)o2)cc1 | 1 | -4
CC(C)C1CN(C(=O)CCN2CCCC2=O)CCCN1Cc1ccc(F)cc1 (stereo not drawn) | 1 | -1
CCN(CC)C(=O)CN1CCN(S(=O)(=O)c2ccc3[nH]c(=O)oc3c2)CC1 | 4 | -4
O=C(c1cc(Cl)cc(Cl)c1)N1CCC(CCc2ccc3c(c2)OCO3)CC1 | 3 | 8
N#CCn1c(CN2CCCCC2C(N)=O)nc2scc(-c3ccccc3)c2c1=O (stereo not drawn) | 11 | 5
COc1cc2c(cc1OC)CN(C1CCCN(Cc3ccc4c(c3)OCCO4)C1)CC2 (stereo not drawn) | 2 | 0
O=C(NC(C1CC1)C1CC1)C1CCN(S(=O)(=O)c2ccccc2C(F)(F)F)CC1 | 5 | 3
COc1ccccc1-c1cc2c(n(Cc3ccccc3)c1=O)CCN(C(=O)CCc1cnccn1)C2 | 19 | 8
COc1cccc(-c2cc(C(=O)N3CCN(C/C=C/c4ccccc4)CC3)nc3cc(C(C)(C)C)nn23)c1 | 9 | 6
COc1ccc(NC(=O)C2CCN(C(=O)[C@@H]3CCCN3C(=O)Nc3c(Br)cc(C(C)C)cc3Br)CC2)cc1 | 3 | 2
CC(=O)N(CC(O)CO)c1c(I)c(C(=O)NCCO)c(I)c(C(=O)NCC(O)CO)c1I (stereo not drawn) | -2 | -4

(next part)
SMILES | NPYLR7 agonist | NPYLR7 agonist max-min
CCCCc1nc(N2CCN(Cc3ccccn3)CC2)c2c(C)nn(-c3ccccc3)c2n1 | 7 | 9
CN1CCC(C2CCNCC2)CC1 | -11 | -19
COc1ccc(CNC(=O)c2cccnc2N2CCN(C(=O)c3ccc(-c4cccc(Cl)c4)s3)CC2)cc1 | -1 | -5
CCN(CC)S(=O)(=O)c1ccc2c(c1)nc(SCc1ccc(Cl)s1)n2CC1CCCO1 (stereo not drawn) | 29 | 16
CCNC(=O)C1(C)CCCN(CC(=O)c2csc3ccccc23)C1 (stereo not drawn) | 7 | 4
Cc1ccc(NC(=O)CC(=O)N2CCNC(=O)C2Cc2ccccc2)c(C)c1 (stereo not drawn) | -1 | -4
COCC(=O)N(Cc1cc(-c2ccc(C)c(C)c2)on1)CC(C)C | 19 | 11
OC1CCCN(c2ccnc(N3CC(c4cccnc4)C3)n2)C1 (stereo not drawn) | 23 | 9
COCCCNc1ncnc2c1c(-c1ccccc1)cn2-c1ccc(F)cc1 | 1 | 0
Cc1ccc(C2(O)CCN(C(=O)c3nc[nH]c3C)CC2)nc1 | 10 | 0
CC1(C)CN(C(=O)COc2ccccc2)CC(=O)N(CC(O)Cn2cccc2)C1 (stereo not drawn) | 7 | 7
Cc1ccccc1S(=O)(=O)NC(=O)C1(C)CCN1C(=O)c1cc(C)n(C)n1 (stereo not drawn) | 1 | -2
O=C(c1cccc(F)c1)N(CCCn1ccnc1)c1nc2ccc(F)cc2s1 | -12 | -17
O=S(=O)(N1CCCC1)N1CCCCC1CCc1ccccc1 (stereo not drawn) | -1 | -1
CCc1[nH]c2c(CNC(=O)c3ccc(=O)n(C)c3)cc(C)cc2c1C | 6 | -3
Cc1cccc(N2CCN(C(=O)CCc3ccc4c(c3)OCO4)CC2)c1C | 2 | 2
COc1cccc(CN(CCc2c[nH]c3ccccc23)Cc2nc(C(=O)NCc3ccco3)co2)c1OC | 2 | 21
Cc1cc(O)c(C(=O)Nc2cccc(Cl)c2)c(=O)n1C | -3 | -5
O=C1C2C3C=CC(CC3)C2C(=O)N1c1ccc(F)cc1 (stereo not drawn) | -13 | -17
CCCc1nn2c(=O)cc(O)nc2s1 | -7 | -7
CC(=O)Nc1ccc(C(=O)/C=C/c2ccc(-c3ccccc3[N+](=O)[O-])o2)cc1 | -4 | -3
COC(=O)c1ccc(COC(CN2CCN(C(=O)NC3C[C@H]3c3ccccc3)CC2)c2ccc(Cl)cc2)cc1 (stereo partly drawn) | -1 | 0
COc1ccc(-c2ccc(S(=O)(=O)N3CCCCCC3)cc2)cc1 | -1 | 3
CCc1cc(=O)[nH]c(-n2nc(C)cc2NC(=O)Cc2ccc(OC)c(OC)c2)n1 | 2 | -2
CCCCN(CCCC)CCNC(=O)c1c(C)cc(C)[nH]c1=O | 6 | 8
CC(=O)Nc1sc(C)c(C)c1C(=O)OCC(=O)c1cc(C)n(-c2cc(C)on2)c1C | 7 | 7
CC(Oc1ccccc1)C(=O)N1CCN(C(C)c2ccccc2)CC1 (stereo not drawn) | -5 | -3
CCOC(=O)C(=O)Nc1cccc(-c2cccc(-c3ccc(F)cc3F)n2)c1 | -11 | -8
CC(C)CNc1nc(N)c([N+](=O)[O-])c(N2CCN(C)CC2)n1 | 2 | 8
Fc1ccc(Nc2nc(-c3cccc(Br)c3)nc3ccccc23)cc1 | -1 | 10
CCC(Sc1nnc(C)n2c1cc1oc(C)cc12)C(=O)N1CCOCC1 (stereo not drawn) | 4 | 0
CCC1CCCCN1C(=S)Nc1cccc(Cl)c1 (stereo not drawn) | -4 | -5
CCN(CC)C1CCN(c2nncc(-c3cccc(F)c3)n2)C1 (stereo not drawn) | 0 | -5
N#Cc1c(NC(=O)c2cnn3c(C(F)(F)F)cc(-c4ccccc4)nc23)sc2c1CCCCC2 | -10 | -17
CC(C)CC(O)CNC(=O)c1cnc2c(c1)c(=O)n(C)c(=O)n2C (stereo not drawn) | -1 | -3
CCOc1cccc(C(O)CC)c1 (stereo not drawn) | 10 | 7
COc1cc(-c2c(-c3ccccc3)ncn2CCC2CCCN2C)ccc1O (stereo not drawn) | -3 | -4
Cc1c2c(cc3c4c(c(=O)oc13)CCC4)C(O)CC1(CCCC(C)C1)O2 (stereo not drawn) | -11 | -16
Cc1ccc(-c2nn3c(C)nnc3s2)cc1N | 0 | -1
COc1ccc(Nc2nc(-c3ccncc3)nc3ccccc23)cc1 | 2 | 2

The closing 2 entries of the section above are carried over, then new ones follow:
SMILES | NPYLR7 agonist | NPYLR7 agonist max-min
Cc1ccc(-c2nn3c(C)nnc3s2)cc1N | 0 | -1
COc1ccc(Nc2nc(-c3ccncc3)nc3ccccc23)cc1 | 2 | 2
COCc1c(Br)c(C)nc(OCC(=O)N/N=C\c2cccc(Br)c2)c1C#N | 11 | 13
CCc1nc(N)sc1C(=O)N1CCCN(c2ccncc2C)CC1 | 7 | 4
COc1ccc(C(CC(=O)NCCN2CCCCC2)c2c[nH]c3ccccc23)c(OC)c1 (stereo not drawn) | 6 | 10
O=C(O)CCCCCN1C(=O)CCC1=O | 5 | 5
CCc1ccsc1C(=O)Nc1n[nH]c(-c2ccoc2)n1 | 11 | 8
CCOc1ncccc1-c1cccc(N)n1 | 6 | 5
O=C(c1coc(CN(Cc2cccc(C(F)(F)F)c2)Cc2ccc(F)cc2F)n1)N1CCCC1 | 19 | 26
CN1CCCC(CO)(Cc2ccccc2)C1 (stereo not drawn) | 1 | -4

Only part of the results is shown, so the mix of outcomes need not match the whole.
